Bioassay records as filed in PubChem BioAssay.
AID504770 = E. coli YBA685 growth inhibition, screen for V. cholerae RctB inhibitors; E. coli YBA685 rctB-dependent plasmid, OD600 growth, 3 h; stronger effect = lower value; 130,000 compounds, 0.27% hits; z-score (concentration not given with the values);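 active = z-score under -2 on both plates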;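 also: wells of about 30 µL received 100 nL stock; score is relative to mean and SD of the test wells; the first replicate is given; strong numbers were not always called active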
Ba CapD inh = blocks the Bacillus anthracis CapD enzyme | 140,000 compounds, 0.23% hits | purified CapD enzyme, fluorescence intensity read-out; stronger effect = lower value; some hits fall short of the stated cut | z-score (concentration not given with the values);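 active = z-score under -4 in either of two replicates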;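 also: stock transfer was 100 nL into about 40 µL; score is relative to mean and spread of the plate; one replicate is shown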
Numbers without * were called inactive; i = inactive; . = no result given.

No.	SMILES	AID504770	Ba CapD inh
1	Clc1cc(Cl)cc(Nc2ncnc(-n3cccc3)n2)c1	.	-0.09
2	O=C1N=C2SC=CN2C(=O)/C1=C\c1ccccc1	0.2	.
3	O=C(NNc1nc(C(F)(F)F)nc2ccccc12)c1ccc(Cl)cc1	.	8.32
4	CC1CC(C)CN(C(=O)CNCc2ccco2)C1 (stereo not drawn)	0.85	.
5	c1ccc(-c2nc(NCCCN3CCOCC3)c3ccccc3n2)cc1	.	1.17
6	O=[N+]([O-])c1ccc2c(c1)S(=O)(=O)c1ccccc1-2	.	0.195
7	O=C(/C=N/Nc1ncc(C(F)(F)F)cc1Cl)c1ccc(Cl)cc1	.	-0.42
8	COc1cc2c(cc1NC(=O)CN1CC(C)OC(C)C1)oc1ccccc12 (stereo not drawn)	0.95	.
9	Cc1nc(-c2ccccc2)sc1C(=O)CSc1cccc(Cl)c1Cl	.	-0.46
10	O=C(NCCOC(=O)NNC(=O)c1ccc(-c2ccccc2)cc1)OCc1ccccc1	.	3.02
11	Cc1cc(C)c(C)c(S(=O)(=O)N2CCN(Cc3ccc(C(C)(C)C)cc3)CC2)c1C	.	-0.75
12	O=C(N[C@H](CO)[C@H](O)c1ccc([N+](=O)[O-])cc1)C(Cl)Cl	.	-0.19
13	O=C(COC(=O)C12CC3CC(CC(O)(C3)C1)C2)NCc1ccc2c(c1)OCO2	0	.
14	O=c1c2c3c(sc2nc(SCCn2ccnc2)n1-c1ccccc1)CCCC3	0.6	.
15	O=C(Nc1nc(SCc2ccc(F)cc2)ns1)c1cccs1	1.95	-0.32
16	COc1ccc(CNC(=O)NC2CCN(S(=O)(=O)c3ccc(OC)cc3)CC2)cc1	-0.65	0.365
17	Cc1c(NC(=O)COC(=O)C23CC4CC(CC(O)(C4)C2)C3)c(=O)n(-c2ccccc2)n1C	-0.85	.
18	CCCN(CCC)C(=O)c1cc2c(=O)n3ccccc3nc2s1	0.75	89.8
19	COc1cccc(C2C(N3C(=O)c4ccccc4C3=O)C(=O)N2c2ccc(Cl)cc2)c1 (stereo not drawn)	.	-0.365
20	COc1ccccc1NC(C)C(=O)N/N=C/c1cccs1 (stereo not drawn)	-0.1	-0.34
21	COC(=O)CC1C(=O)NCCN1C(=O)c1ccccc1 (stereo not drawn)	-1.1	-0.105
22	COc1ccc(C2=C(C(C)=O)C(C)=NC(=S)C2C#N)cc1 (stereo not drawn)	.	-0.515
23	CC(C)CNC(=O)c1cnn2c(C(F)(F)F)cc(C(F)(F)F)nc12	0	-0.035
24	Cc1ccc(C)n1-c1ccc(OC(F)(F)F)cc1	.	0.055
25	COC(=O)c1cc2sccc2n1CC#N	-0.65	.
26	COC(=O)c1ccc(COc2ncnc3c2cnn3-c2ccccc2)o1	-0.45	.
27	O=C1c2ccccc2C(=O)N1CCCc1nc2ccccc2c(=O)n1Cc1ccccc1	.	-0.46
28	O=C(O)Cn1c2ccc(Cl)cc2c2nc3ccccc3nc21	-1.15	-0.14
29	COc1cc(-c2nc(C=Nc3ccc(Cl)cc3Cl)c(O)o2)cc(OC)c1OC	.	0.275
30	COc1cccc(Nc2ccc(-c3ccccc3)nn2)c1	-0.1	0.51
31	CN1CCN(c2ncnc3oc(-c4ccccc4)c(-c4ccccc4)c23)CC1	0.4	.
32	COc1cc(N2CCCC2)c([N+](=O)[O-])cc1[N+](=O)[O-]	.	-0.3
33	O=C(CSc1ncn[nH]1)c1ccco1	-0.55	.
34	COc1ccc2cc3c(N)nn(C(=O)Cc4ccccc4OC)c3nc2c1	-0.1	-0.05
35	O=C1CCCN1C(c1ccc(Br)cc1)N1CCCC1=O	-0.5	.
36	Cc1cc(=O)c2ccc(Cl)cc2[nH]1	-0.9	0.49
37	CCOC(=O)CSc1nc(NCc2ccc(Cl)cc2)c2ccccc2n1	.	0.69
38	c1cncc(C2=Nc3ccccc3C(c3cccnc3)=NN2)c1	2.05	.
39	O=C1C2C3c4ccccc4C(c4ccccc43)C2C(=O)N1CNCc1ccccc1 (stereo not drawn)	.	5.32
40	O=C(O)c1c(CNCc2ccco2)c2ccccc2n1Cc1ccccc1	-0.7	1.53
41	O=C(c1ccccc1C(=O)N1CCOCC1)N1CCOCC1	-0.3	0.22
42	Cc1cc(CO)c(C)n1-c1ccncc1	-0.7	-0.32
43	O=C(Nc1ccccc1C(F)(F)F)NN1CCOCC1	0.15	0.075
44	CSC(=Nc1c(C)cccc1C)N(C)C	1.75	-0.505
45	COc1cccc(N/C(SCc2ccc(C)cc2C)=C(/C#N)C(=O)NCCc2ccc(OC)c(OC)c2)c1	.	0.255
46	Cc1ccc(C(=O)On2c(C3CCCCC3)nc3ccccc3c2=O)cc1C	.	-0.025
47	O=S(CCc1ccncc1)Cc1ccccc1 (stereo not drawn)	0.75	0.01
48	CC(=O)Nc1ccc(Nc2cc(C)nc3ccccc23)cc1	2.8	.
49	CCn1c2ccccc2c2nnc(SCC(=O)Nc3ccc4c(c3)OCO4)nc21	-1.25	.
50	O=C(Cn1c(=O)c(C(F)(F)F)nc2ccccc21)NCc1ccccc1	-0.15	0.03
51	COc1ccc(/C=N/NC(=O)CN2CCSCC2)c(OC)c1	-0.4	0.075
52	CCCc1c(C(=O)OCC)c(C(=O)OCC)c2c(-c3ccccc3)nc(N3CCOCC3)nn12	-0.55	-0.96
53	Cc1c(CC(=O)O)c(=O)oc2c(C)c3occ(C(C)(C)C)c3cc12	1.55	7.22
54	N#Cc1c(N)sc2c1CCCC2	0.7	.
55	CN1C=C(C(F)(F)F)C=CC1=C1C(=O)c2ccccc2C1=O	-0.5	.
56	CC1CCCCN1CC(=O)NCc1ccc(Cl)cc1 (stereo not drawn)	0.15	.
57	Cc1ccc2nc(Cc3nc4ccc(C)cc4[nH]3)[nH]c2c1	-1.6	-1.31
58	Cc1onc(-c2ccccc2)c1C(=O)NNc1ccc(Cl)cc1	-0.4	-0.225
59	CN(C)c1nc(-c2ccc(OC(F)F)cc2OC(F)F)cs1	-0.2	.
60	C=CCN1C(=O)C(Cc2ccc(F)cc2)S/C1=N\N=C/c1ccco1 (stereo not drawn)	0.2	.

The results go on.
No.	SMILES	AID504770	Ba CapD inh
61	COc1cc(OC)nc(CSc2ccc(NC(=O)C(c3ccccc3)c3ccccc3)cc2)n1	.	-0.595
62	CCOc1ccc(-n2c(=O)c3sccc3n(CC(=O)Nc3ccccc3C(=O)OC)c2=O)cc1	0.05	1.29
63	CCc1cc(-c2nc(N)ncc2-c2cscn2)c(O)cc1OC	0.4	0.285
64	CS(=O)(=O)N1CCN(C(=S)NC2CCCCC2)CC1	0.65	0.11
65	Cc1ccc(C(=O)N2CCN(c3cc(=O)[nH]nc3-c3ccccc3)CC2)cc1	.	-0.68
66	CCOC(=O)c1c(Cn2nnc3ccccc32)nc2ccccc2c1C	-0.4	.
67	O=C1CSC(c2ccccc2F)N1 (stereo not drawn)	-1.05	0.365
68	CS(=O)(=O)c1ccccc1F	0.75	.
69	CN1C(=S)SC(N2OC3C(=O)N(c4ccccc4)C(=O)C3C2c2cccc([N+](=O)[O-])c2)C1(C)C (stereo not drawn)	.	2.97
70	Fc1ccc(-c2csc(Nc3cccnc3)n2)cc1	.	0.38
71	COC(Cn1c(SCC(=O)Nc2cc(Cl)cc(Cl)c2)nnc1-c1ccccc1)OC	-0.8	9.65
72	COC(=O)C1=C(N)OC2=C(C(=O)CC(c3ccccc3)C2)C1c1ccccc1C (stereo not drawn)	.	-0.575
73	Cc1ccccc1N1C(=O)CS/C1=C(/C#N)C(=O)N1CCCCC1	-0.55	-0.37
74	O=[P+](c1ccccc1)c1ccccc1	-1	0.24
75	COc1ccc(CC(=O)NC2CCN(CC(=O)c3ccc(F)cc3)CC2)cc1OC	1.35	.
76	COc1ccc(NC(=O)C2CC(c3cccc(OC)c3)=NO2)cc1 (stereo not drawn)	-0.6	-0.6
77	c1csc(-c2cc(N3CCCCC3)c3ccccc3n2)c1	-1.95	7.28
78	O=C(O)CCCSc1ncnc2sc3c(c12)CCCC3	2.6	i
79	COc1ccccc1S(=O)(=O)N(C)Cc1ccccc1	0.35	.
80	CCOC(=O)c1ccc(NC(=O)CSc2nccn2-c2cccc(C)c2C)cc1	1.5	0.39

Complete entries, quoted from the list. Order of screens: AID504770 | Ba CapD inh
COc1ccc2cc3c(N)nn(C(=O)Cc4ccccc4OC)c3nc2c1 is listed with -0.1 | -0.05
CS(=O)(=O)N1CCN(C(=S)NC2CCCCC2)CC1 is listed with 0.65 | 0.11
CCCN(CCC)C(=O)c1cc2c(=O)n3ccccc3nc2s1 is listed with 0.75 | 89.8
Cc1onc(-c2ccccc2)c1C(=O)NNc1ccc(Cl)cc1 is listed with -0.4 | -0.225
CC(=O)Nc1ccc(Nc2cc(C)nc3ccccc23)cc1 is listed with 2.8 | .

(listing goes on)
No.	SMILES	AID504770	Ba CapD inh
81	O=C(O)[C@@H](c1ccccc1)N1C(=O)c2ccccc2C1=O	0.85	0.035
82	N#Cc1cccnc1Oc1ccccc1	2.1	-1.58
83	Clc1ccc(/C=N/N2CCOCC2)cc1	-0.45	-0.44
84	O=c1c2ccccc2[nH]c(=S)n1-c1ccc(F)cc1F	.	1.28
85	CN(C)c1ccc(P(=O)(C2CCCC2=O)C2CCCC2=O)cc1 (stereo not drawn)	0.15	.
86	O=C(CSc1cc(Cl)ccc1Cl)NC1CC1	-1	.
87	CC1(C)CC(=O)C2=C(C1)NC1=C(C(=O)CC(C)(C)C1)C2c1ccc(Cl)cc1	.	4.3
88	CN(C)c1ccc(C=Nc2ccc(C(=O)O)cc2)cc1	1.2	-2.55
89	C/C=N/Nc1nc(C)cc(C)n1	-0.65	.
90	CC/C(O)=C(\C#N)c1nnc2n1CCCCC2	2.7	.
91	CCSc1nnc(NC(=O)c2ccccc2Cl)s1	1.25	i
92	CC(=O)N(c1ccccc1)C1CC(C)N(C(=O)c2cccc(Cl)c2)c2ccccc21 (stereo not drawn)	.	-0.08
93	COCCN1COc2c(cc(Cl)c3cccnc23)C1	-0.45	.
94	C/C(=N\NC(=O)c1cccnc1)c1ccc(-n2ccnc2)cc1	0.95	.
95	COC(=O)c1cc(NC(=O)c2ccc(N3CC4CC(C3)c3cccc(=O)n3C4)c(N)c2)cc(C(=O)OC)c1 (stereo not drawn)	0.2	-0.355
96	CC(C)NC(=O)N1CCCN(c2nc3ccc(Cl)cc3s2)CC1	-1.15	0.795
97	O=C1OC(c2ccc(-c3ccccc3)cc2)=N/C1=C\c1ccco1	-0.5	-0.4
98	CC1Cc2ccccc2N1C(=O)c1cc(Cl)cc(Cl)c1 (stereo not drawn)	-0.35	-1.07
99	CCc1ccc2[nH]c(=O)c(CN(CCO)C(=S)NCc3ccco3)cc2c1	-0.7	.
100	Cc1c(C(=O)c2ccc([N+](=O)[O-])cc2)oc2c(Cl)cc(Cl)cc12	.	-0.08

The closing 2 compounds of the section above open the next one.
No.	SMILES	AID504770	Ba CapD inh
99	CCc1ccc2[nH]c(=O)c(CN(CCO)C(=S)NCc3ccco3)cc2c1	-0.7	.
100	Cc1c(C(=O)c2ccc([N+](=O)[O-])cc2)oc2c(Cl)cc(Cl)cc12	.	-0.08
101	N#Cc1c(NC(=O)CSc2nnc3ccccn23)sc2c1CCC2	0.85	0.265
102	Cc1ccc2nc3c4ccccc4cnc3n2c1	0.05	0.005
103	CC(C)OC(=O)c1ccc2c(c1)no[n+]2[O-]	-1.5	.
104	O=C(CSc1ccccc1)N1CCN(c2ccc(F)cc2)CC1	0.8	-0.135
105	O=C(NCCSCc1ccco1)C1CCC1	-0.4	0.06
106	O=C(Nc1c(C(=O)c2ccccc2)oc2ccccc12)c1cccs1	0.85	59.4
107	O=C(O)CSc1nc2scc(-c3ccccc3)c2c(=O)[nH]1	0.45	-0.51
108	Cc1cc(Cl)ccc1OCCCC(=O)NCc1ccccn1	-1.25	-0.045
109	O=C(CSc1nc2ccccc2o1)Nc1ccccc1C(F)(F)F	.	0.34
110	COC(=O)c1ccccc1C(=O)c1ccccc1	2.7	-0.415
111	CC(C)(C(=O)O)N1C(=O)c2ccccc2C1=O	1.85	.
112	COc1cc(OC)c(/C=N/NC(=O)C2CC2c2ccccc2)cc1Br (stereo not drawn)	.	1.28
113	CCOC(=O)c1cnc2sc3c(n2c1=O)CCCC3	-1.2	.
114	CC(=O)N(C)c1ccc(N=Cc2cccs2)cc1	-0.3	0.05
115	NC(Cc1ccccc1)Cc1ccccc1	-0.65	.
116	CCc1ccc(Nc2nnc(SCC(=O)O)s2)cc1	1.7	.
117	S=C(CN1CCCC1=S)N1CCOCC1	0.3	-0.17
118	CCOC(=O)Nc1cc(Cl)cc(Cl)c1	.	0.165
119	O=C1c2ccccc2-c2nc3ccccc3nc21	-0.4	0.365
120	C=CCSc1nnc2n(-c3ccc(OC)cc3)c(=O)c3c4c(sc3n12)COC(C(C)C)C4 (stereo not drawn)	0.3	0.425
121	CC(C)n1cc(-c2cc(C(=O)NCc3cccc(C(F)(F)F)c3)ccc2[N+](=O)[O-])cn1	.	-0.07
122	CC(=O)Nc1ccc(S(=O)(=O)CCO)cc1	0.3	-0.01
123	O=C(NCCc1c[nH]c2ccccc12)c1cnn2c(C(F)(F)F)cc(-c3ccco3)nc12	.	-1.33
124	CNC(=O)OC(C)(C)C#Cc1cncnc1	0.25	0.915
125	CCC(=O)Nc1ccc(C(=O)COc2cccc(-n3cnnn3)c2)cc1	0.8	.
126	CSc1n[nH]c(=O)n1C1CCCCC1	0.05	9.1
